PABP FP inh: PABP-poly(A) binding inhibition. P11940. PABP-poly(A) RNA binding, fluorescence polarization. inhibition, % at 35 µM. 290,000 tested, 1% active. AID 2014;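 active = 50% or more with normal probe brightness, or confirmed in later tests; inconclusive = above 50% with abnormal brightness, or retests that disagree; inactive = below 50% or failed in later tests; about a fifth of its hits are not listed in these tables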;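 also: calls also rest on retests at 20 µM and on dose response follow-up; controls were probe without protein and protein plus probe with vehicle; some compounds called inactive have numbers as strong as hits; many hits fall short of the cut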
HIV Env fusion: HIV envelope-mediated fusion inhibition; 360,000 tested, 1.1% active; inhibition, % at 12.3 µM; AID 651610; HeLa-JRFL Env/CEM21 cell fusion, luciferase;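 active = mean replicate inhibition score of at least 50 and every replicate individually at or above 50; inconclusive = only one of the two criteria met; inactive = mean below 50 and not all replicates reaching 50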;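 also: 0% = plate neutral controls and 100% = maraviroc near 300 nM; one replicate is shown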
eIF4H inh: inhibitors of RNA binding by human eIF4H; AID 2012; Q15056; 290,000 tested, 0.94% active; eIF4H fluorescence polarization binding assay; inhibition, % at 35 µM;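 active = 50% or more with normal probe brightness, or confirmed in later tests; inconclusive = above 50% with abnormal brightness, or retests that disagree; inactive = below 50% or failed in later tests; about a fifth of its hits are not listed in these tables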;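 also: calls also rest on retests at 20 µM and on dose response follow-up; 0% = protein and probe with vehicle and 100% = probe without protein; strong numbers were not always called active; many hits fall short of the cut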
CSC inhib: cancer stem cell inhibition. 300,000 tested, 1.1% active. inhibition, % at 7.5 µM. cancer stem cell-like cells viability, luminescence;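 active = mean at 75% or more and at least half the replicates too; inconclusive = mean and replicates disagree; tested in HMLE shEcad cells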;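 also: 0% = median of negative and 100% = median of positive control wells; the first replicate is given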
UUG fidelity: modulators of start codon recognition fidelity in yeast; activity score, % at 18.7 µM; 350,000 tested, 0.13% active; S. cerevisiae UUG-firefly luciferase reporter, luminescence/redox ratio;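 active = replicate mean at a twofold rise or more, about +100% in these data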;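 also: firefly luciferase made from a UUG start codon reports start codon fidelity; reporter light over untreated wells divided by growth signal over untreated wells; some hits fall short of that in this replicate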
Rce1 inhib: blocks yeast Ras-converting enzyme; Q03530; yeast membranes, quenched prenylated peptide cleavage fluorescence; calls only; 290,000 tested, 0.27% active; AID 2563;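 active = fall in fluorescence gain of 50% or more versus controls, with final raw signal at or below 3038400; inconclusive = same 50% fall but final raw signal above 3038400; inactive = fall in fluorescence gain under 50%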;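 also: plate controls were neutral control wells for no effect and wells lacking membranes for full effect; tested at 10 µM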
Target sequence (Q03530 whole entry, looked up): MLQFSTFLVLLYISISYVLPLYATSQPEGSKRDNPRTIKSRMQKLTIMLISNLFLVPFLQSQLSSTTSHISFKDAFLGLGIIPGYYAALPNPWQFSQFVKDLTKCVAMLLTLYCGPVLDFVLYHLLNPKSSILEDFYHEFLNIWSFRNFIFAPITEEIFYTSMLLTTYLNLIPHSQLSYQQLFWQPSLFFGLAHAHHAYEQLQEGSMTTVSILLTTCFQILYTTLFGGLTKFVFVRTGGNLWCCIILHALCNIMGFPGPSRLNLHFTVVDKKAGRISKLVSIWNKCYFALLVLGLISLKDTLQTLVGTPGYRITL
MT1-MMP act inh: inhibitors of human MT1-MMP activation; P50281; HT1080 RFP-PRO-GFP cells, GFP/RFP ratio fluorescence, overnight; percent of plate control window, DMSO zero; GFP/RFP ratio change, % at 20 µM; 360,000 tested, 0.061% active; AID 651647;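 active = GFP/RFP ratio change of at least 30% with cell ATP level not reduced by more than half and red fluorescence within 50% of control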; also: strong numbers were not always called active
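Assay system – RFP-PRO-GFP reporter HT1080 cells · Compound dosing – single dose of 20 µM compound, 1% DMSO final · Incubation – overnight compound exposure at 37 °C · Measure – GFP/RFP fluorescence ratio · Benchmarks – DMSO wells and RFP-L50D-GFP cells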
eIF4H inh retest: further read-out of eIF4H inh, marked with its call; inhibition, %; compound at 20 µM; confirmation average;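 mean of two retest wells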
PABP FP inh retest: second read-out of PABP FP inh, no call of its own (marks repeat the call); inhibition, %; compound at 20 µM; confirmation repeats;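 mean of two retest wells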
MT1-MMP act inh RFP: recorded beside MT1-MMP act inh, whose call it bears; RFP signal change, %; measured here: RFP expression control read;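 0 = vehicle wells; hits needed this value within 50% of zero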
* = called active by the depositor; & = joins results of further samples.

O=C1NC(CCc2ccccc2)C(=O)N1Cc1ccccc1Cl (stereo unspecified) was read as PABP FP inh -2, HIV Env fusion 9, eIF4H inh -6, CSC inhib -10, UUG fidelity -4, Rce1 inhib inactive, MT1-MMP act inh 2 and MT1-MMP act inh RFP 0.
Screening CN(CC(=O)Nc1ccc(F)c(F)c1F)C(=O)CCc1nc2sc3c(c2c(=O)[nH]1)CCCC3 returned HIV Env fusion 7, CSC inhib 1, UUG fidelity -15, Rce1 inhib inactive, MT1-MMP act inh -8 and MT1-MMP act inh RFP -3.
CC1CCN(c2ccc(-c3cccc(NC(=O)C(F)(F)F)c3)nn2)CC1 was read as PABP FP inh -2, HIV Env fusion 80*, eIF4H inh -8, CSC inhib 25, UUG fidelity -19, Rce1 inhib inactive, MT1-MMP act inh 5 and MT1-MMP act inh RFP -7.
Cn1c(N)c(C(=O)Nc2ccc(-c3ccccc3)cc2)sc1=S was read as PABP FP inh -2, HIV Env fusion 9, eIF4H inh -31, CSC inhib 15, UUG fidelity -17, Rce1 inhib inactive, MT1-MMP act inh 3 and MT1-MMP act inh RFP -2.
Screening Cc1ccccc1-c1nc(-c2cccnc2)no1 returned PABP FP inh 1, HIV Env fusion -346, eIF4H inh -8, CSC inhib 3, UUG fidelity -21, MT1-MMP act inh -4 and MT1-MMP act inh RFP 1.
COc1ccc(OCc2nc(N)nc(Nc3cccc(C)c3C)n2)cc1 was read as PABP FP inh 70, eIF4H inh 7, CSC inhib 3, UUG fidelity 1, Rce1 inhib inactive, MT1-MMP act inh 16, eIF4H inh retest -9, PABP FP inh retest -9 and MT1-MMP act inh RFP -4.
Screening O=C(Nc1ccc(-n2ccc(C(F)(F)F)n2)cc1)Nc1cccc(Cl)c1 returned PABP FP inh -6, HIV Env fusion -29, eIF4H inh -3, CSC inhib 44, Rce1 inhib inactive, MT1-MMP act inh -6 and MT1-MMP act inh RFP -22.
`O=C1CC(c2ccccc2)n2nc(NC(=O)c3cccnc3)nc2N1` (stereo unspecified) gave PABP FP inh -3, eIF4H inh 4 and Rce1 inhib inactive.
CC(Sc1nnnn1C)C(=O)NC1CCCC1 (stereo unspecified) was read as HIV Env fusion 24, CSC inhib 7, UUG fidelity -13, MT1-MMP act inh 2 and MT1-MMP act inh RFP 0.
`Cc1cc(-c2cc(-c3ccc(Cl)cc3)on2)nc(NCC2CC2)n1` gave PABP FP inh 0, HIV Env fusion 4, eIF4H inh -4, CSC inhib 14, UUG fidelity -11, Rce1 inhib inactive, MT1-MMP act inh 5 and MT1-MMP act inh RFP 0.
Screening COC(=O)CSc1nnc(-c2ccccc2O)n1-c1ccc(C)cc1 returned PABP FP inh 10, HIV Env fusion -56, eIF4H inh -5, CSC inhib 1, Rce1 inhib inactive, MT1-MMP act inh 2 and MT1-MMP act inh RFP -2.
For CCOc1ccc(/C=C2\SC(=S)N(CCC(=O)N(CCO)c3ccccc3)C2=O)cc1 the results were PABP FP inh 11, HIV Env fusion 32, eIF4H inh 4, CSC inhib 9, UUG fidelity -10, Rce1 inhib inactive, MT1-MMP act inh 0 and MT1-MMP act inh RFP 0.
Cc1[nH]c2ccccc2c1/C=N/NC(=O)C1CC1(c1ccccc1)c1ccccc1 (stereo unspecified) was read as PABP FP inh 7, HIV Env fusion 27, eIF4H inh -2, CSC inhib 116*, Rce1 inhib inactive, MT1-MMP act inh -10 and MT1-MMP act inh RFP -13.
For Cc1ccc(C(=O)NCC(=O)OC(C)C(=O)Nc2ccc(N(C)C)cc2)s1 (stereo unspecified) the results were PABP FP inh inconclusive, HIV Env fusion 5, eIF4H inh 6, CSC inhib -15, UUG fidelity -3, Rce1 inhib inactive, MT1-MMP act inh 2 and MT1-MMP act inh RFP 4.
CC(=O)c1cc2c(cc1NC(=O)C1CN(C(C)=O)c3ccccc3O1)OCO2 (stereo unspecified) was read as HIV Env fusion -18, CSC inhib 15, UUG fidelity -8, MT1-MMP act inh 1 and MT1-MMP act inh RFP -5.
Screening Cc1ccc(S(=O)(=O)Nc2nc3ccccc3nc2NCc2ccco2)cc1 returned PABP FP inh 118, eIF4H inh 122, CSC inhib 5, Rce1 inhib inactive, MT1-MMP act inh -58, eIF4H inh retest 4, PABP FP inh retest 4 and MT1-MMP act inh RFP 4.
`CCN(C(=O)COC(=O)c1ccc2ccccc2n1)c1c(N)n(Cc2ccccc2)c(=O)[nH]c1=O` gave HIV Env fusion 4, UUG fidelity -7, MT1-MMP act inh -3 and MT1-MMP act inh RFP 0.
For COc1ccc(S(=O)(=O)N(CCc2ccccc2)CC(=O)O)cc1OC the results were PABP FP inh 2, eIF4H inh 3, CSC inhib -10, UUG fidelity -19, Rce1 inhib inactive, MT1-MMP act inh 4 and MT1-MMP act inh RFP 11.
`C[C@@H]1COC(=O)CCC/C=C\C[C@@H](CC(=O)N(CCO)Cc2ccccc2)C(=O)N1` gave HIV Env fusion 2, UUG fidelity 0, MT1-MMP act inh 4 and MT1-MMP act inh RFP 8.
For COc1ccc(CNC(=O)CCC(=O)Nc2ccc(Cl)cc2)cc1 the results were PABP FP inh 1, HIV Env fusion 4, eIF4H inh -4, CSC inhib -10, UUG fidelity -4, Rce1 inhib inactive, MT1-MMP act inh -6 and MT1-MMP act inh RFP 0.
`COc1ccc(OC)c(C(=O)NC(CC(N)=O)c2ccc(NCCN3CCCC3)c([N+](=O)[O-])c2)c1` (stereo unspecified) gave PABP FP inh -2, HIV Env fusion 17, eIF4H inh -13, CSC inhib 10, UUG fidelity -17, Rce1 inhib inactive, MT1-MMP act inh 10 and MT1-MMP act inh RFP 8.
For Cc1cccc[n+]1C1C(c2ccccc2)C(C#N)=C(C(=C=[N-])C#N)NC1(O)C1CC1 (stereo unspecified) the results were PABP FP inh inconclusive, eIF4H inh inconclusive, CSC inhib 13, UUG fidelity -17, Rce1 inhib inactive, MT1-MMP act inh -24 and MT1-MMP act inh RFP 9.
For O=C(c1ccco1)N1CCN(Cc2ccc(F)cc2Cl)CC1 the results were PABP FP inh -1, HIV Env fusion 8, eIF4H inh -14, UUG fidelity 7, Rce1 inhib inactive, MT1-MMP act inh -1 and MT1-MMP act inh RFP -4.
`N#Cc1c(NC(=O)c2ccc(Br)o2)n(-c2ccccc2)c2nc3ccccc3nc12` gave PABP FP inh 12, HIV Env fusion 7, eIF4H inh 4, CSC inhib 33, UUG fidelity -9, Rce1 inhib inactive, MT1-MMP act inh -125 and MT1-MMP act inh RFP 6.
Screening Cc1noc(C)c1COc1cccc(C(=O)Nc2ccc(OCc3ccccc3)cc2)c1 returned PABP FP inh -1, eIF4H inh 0, CSC inhib 98*, UUG fidelity -6, Rce1 inhib inactive, MT1-MMP act inh 5 and MT1-MMP act inh RFP -14.
`COc1ccc(CSc2nnc(CNS(C)(=O)=O)o2)cc1` gave PABP FP inh -10, eIF4H inh -9, CSC inhib 1, UUG fidelity -13, Rce1 inhib inactive, MT1-MMP act inh 2 and MT1-MMP act inh RFP 8.
`CCN(CC)CCNC(=O)C(=O)Nc1cc2c3c(c1)CCN3C(=O)CC2` gave PABP FP inh 10, HIV Env fusion -8, eIF4H inh -4, CSC inhib -2, UUG fidelity -11, Rce1 inhib inactive, MT1-MMP act inh 2 and MT1-MMP act inh RFP 2.
CCOC(=O)c1cnc(N)nc1C(F)(F)F was read as PABP FP inh 3, HIV Env fusion -64, eIF4H inh -10, CSC inhib -4, Rce1 inhib inactive, MT1-MMP act inh 3 and MT1-MMP act inh RFP 4.
Screening CCCOc1ccc(N2C(=O)CC(N(CCc3ccc(S(N)(=O)=O)cc3)C(C)=O)C2=O)cc1 (stereo unspecified) returned PABP FP inh -5, HIV Env fusion 20, eIF4H inh 4, CSC inhib 1, UUG fidelity -16, MT1-MMP act inh 1 and MT1-MMP act inh RFP 2.
`O=C(NNC(=O)c1csc(-c2cccs2)n1)c1ccc(Cl)cc1` gave HIV Env fusion -7, UUG fidelity -7&-5, MT1-MMP act inh 6 and MT1-MMP act inh RFP 5.
CCCCC1=NN(C(=O)c2ccco2)C(O)(C(F)(F)F)C1 (stereo unspecified) was read as PABP FP inh -5, HIV Env fusion -2, eIF4H inh -5, CSC inhib 46, Rce1 inhib inactive, MT1-MMP act inh -14 and MT1-MMP act inh RFP -6.
NNC(=O)COc1cccc2cccnc12 was read as PABP FP inh 6, HIV Env fusion -14, eIF4H inh -2, CSC inhib -11, UUG fidelity -12, Rce1 inhib inactive, MT1-MMP act inh 13 and MT1-MMP act inh RFP 10.
Screening CCN1CCN(S(=O)(=O)CC2(C)C3CCC2(C)C(=O)C3Br)CC1 (stereo unspecified) returned PABP FP inh -2, HIV Env fusion 17, eIF4H inh -3, CSC inhib 7, Rce1 inhib inactive, MT1-MMP act inh -1 and MT1-MMP act inh RFP 2.
For Cc1cccc(NC(=O)CSc2nnc(-c3ccncc3)n2C)c1 the results were PABP FP inh 0, HIV Env fusion -17, eIF4H inh -9, CSC inhib -24, UUG fidelity -7, Rce1 inhib inactive, MT1-MMP act inh 2 and MT1-MMP act inh RFP 4.
`Cc1ccc(C(=O)N2CCN(C(=O)c3ccc(C)cc3)C2)cc1` gave PABP FP inh 23, HIV Env fusion 8, eIF4H inh 2, CSC inhib 6, UUG fidelity 5, Rce1 inhib inactive, MT1-MMP act inh 1 and MT1-MMP act inh RFP -1.
Screening COc1cccc(N/C(SCc2ccccc2C)=C(/C#N)C(=O)NCc2cccs2)c1 returned PABP FP inh -1, eIF4H inh 6, CSC inhib 13, UUG fidelity -2, Rce1 inhib inactive, MT1-MMP act inh -14 and MT1-MMP act inh RFP -12.
For C#CCNC(=O)/C=C/c1ccc(C)cc1 the results were PABP FP inh -6, HIV Env fusion -37, eIF4H inh -8, CSC inhib 13, UUG fidelity -10, Rce1 inhib inactive, MT1-MMP act inh 5 and MT1-MMP act inh RFP 2.
Cc1ccc(C2CN(CCC(N)=O)C(=O)CO2)cc1 (stereo unspecified) was read as HIV Env fusion inconclusive, CSC inhib -16, UUG fidelity -6, MT1-MMP act inh -1 and MT1-MMP act inh RFP -3.
Screening CCOC(=O)Cn1c(C)c(Br)c(COC)c(C#N)c1=O returned PABP FP inh 9, HIV Env fusion 2, eIF4H inh 2, CSC inhib -15, MT1-MMP act inh 1 and MT1-MMP act inh RFP -2.
`C=C[C@@](C)(O)CC[C@@H]1[C@@]2(C)CCCC(C)(C)[C@@H]2CC[C@@]1(C)O` gave PABP FP inh 8, eIF4H inh -11, CSC inhib 4, UUG fidelity 20 and Rce1 inhib inactive.
`CCCn1c(SC(C)C(=O)N2CCOCC2)nc2ccc(Br)cc2c1=O` (stereo unspecified) gave HIV Env fusion 7, CSC inhib 6, UUG fidelity -8, Rce1 inhib inactive, MT1-MMP act inh 2 and MT1-MMP act inh RFP 0.
Cc1ccc(Cl)cc1NC(=O)COC(=O)CC(C)(C)C was read as PABP FP inh 19, HIV Env fusion 5, eIF4H inh -2, CSC inhib 11, Rce1 inhib inactive, MT1-MMP act inh 2 and MT1-MMP act inh RFP -2.

High-throughput results from PubChem.
